AF4-AF9 inh: MLL-AF4/AF9 protein interaction inhibition; AID 651704; actives 0.47% (n = 350,000); inhibition, % at 10 µM; P42568; AlphaScreen, biotin-AF4 peptide binding to FLAG-AF9;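 active = every replicate reaching a set inhibition limit, whatever the replicate mean, cut at about 25% in these data; inconclusive = mean inhibition reaches that limit but some replicates miss it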;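 also: 0% = plate neutral control median and 100% = total signal loss; the record names both 10 and 1 µM as test concentration; the first replicate is given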
Target sequence (P42568 whole entry, looked up): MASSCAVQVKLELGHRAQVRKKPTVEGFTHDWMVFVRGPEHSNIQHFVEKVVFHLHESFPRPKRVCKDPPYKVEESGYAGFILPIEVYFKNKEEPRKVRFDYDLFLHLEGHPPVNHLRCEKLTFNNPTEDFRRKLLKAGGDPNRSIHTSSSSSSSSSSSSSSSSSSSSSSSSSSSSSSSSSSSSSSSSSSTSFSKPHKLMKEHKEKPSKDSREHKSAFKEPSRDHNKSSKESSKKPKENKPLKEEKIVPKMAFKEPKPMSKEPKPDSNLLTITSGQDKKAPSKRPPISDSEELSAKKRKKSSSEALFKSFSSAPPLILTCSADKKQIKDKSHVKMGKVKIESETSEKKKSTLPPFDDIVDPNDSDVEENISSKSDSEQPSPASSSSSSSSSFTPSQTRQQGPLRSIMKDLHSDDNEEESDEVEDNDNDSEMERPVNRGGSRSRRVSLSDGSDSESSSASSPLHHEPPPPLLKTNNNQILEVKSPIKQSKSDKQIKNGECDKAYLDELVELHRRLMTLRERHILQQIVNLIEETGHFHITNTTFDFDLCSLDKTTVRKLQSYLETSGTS
Starred values were filed as active, the others as inactive; ? = inconclusive.

Start of the data: the first three records, to show the layout:
SMILES	AF4-AF9 inh
C[C@H](CO)N1C[C@H](C)[C@H](CN(C)C(=O)Nc2cc(F)ccc2F)Oc2ncc(-c3cccc(F)c3)cc2C1=O	2.6
CCCCn1nnnc1C1(C)CCC(=O)N1Cc1cccnc1 (centres undefined)	-3.7
C[C@@H]1CN([C@@H](C)CO)C(=O)c2cccc(NC(=O)NC3CCCCC3)c2O[C@@H]1CN(C)S(=O)(=O)c1cccs1	-1.1

All compounds of this part, previewed entries included:
SMILES	AF4-AF9 inh
C[C@H](CO)N1C[C@H](C)[C@H](CN(C)C(=O)Nc2cc(F)ccc2F)Oc2ncc(-c3cccc(F)c3)cc2C1=O	2.6
CCCCn1nnnc1C1(C)CCC(=O)N1Cc1cccnc1 (centres undefined)	-3.7
C[C@@H]1CN([C@@H](C)CO)C(=O)c2cccc(NC(=O)NC3CCCCC3)c2O[C@@H]1CN(C)S(=O)(=O)c1cccs1	-1.1
COc1ccc(CN(C)C[C@H]2Oc3ccc(NC(=O)CCC(F)(F)F)cc3C(=O)N([C@@H](C)CO)C[C@@H]2C)cc1	-3.3
CNC(=O)c1cc(Oc2ccc(NC(=O)c3[nH]c(-c4ccccc4)c4c3C(=O)N(C)C4=O)cc2)ccn1	0.0
CC(=O)N1CC2(C1)[C@H](c1ccccc1)[C@@H](CO)N2C(=O)c1ccncc1	-4.3
CC(C)CC#Cc1cnc2c(c1)C(=O)N([C@H](C)CO)C[C@@H](C)[C@@H](CN(C)Cc1ccccc1C(=O)O)O2	-3.6
CC(C)c1ccc(NC(=O)Nc2nc(C(N)COCc3ccccc3)cs2)cc1 (centres undefined)	13
C[C@@H]1CN([C@@H](C)CO)C(=O)c2cc(NS(=O)(=O)c3ccccc3)ccc2O[C@@H](C)CCCCO[C@H]1CN(C)S(=O)(=O)c1ccccc1	-6.1
Cc1ccc(S(=O)(=O)N(C)C[C@@H]2Oc3ccc(NS(=O)(=O)c4cccs4)cc3CC(=O)N([C@@H](C)CO)C[C@@H]2C)cc1	0.6
C[C@H](NC(=O)C[C@@H]1CC[C@@H](NC(=O)Nc2ccc3c(c2)OCO3)[C@@H](CO)O1)c1ccccc1	0.7
CCCS(=O)(=O)NC(=O)C1(C)CCN(C(=O)c2ccc(C(=O)OC)cc2)C1 (centres undefined)	-1.4
CCCCC1(CC)COC(c2ccccc2)OC1 (centres undefined)	1.1
C[C@@H]1CN([C@H](C)CO)S(=O)(=O)c2ccc(-c3ccccc3F)cc2O[C@H]1CN(C)C	-1.4
CC(C)CN1CCC(C(=O)NC(c2ccc(F)cc2)c2ccc3ccccc3n2)CC1 (centres undefined)	5.6
COc1ccc(C#Cc2cnc3c(c2)C(=O)N([C@H](C)CO)C[C@H](C)[C@H](CN(C)S(=O)(=O)c2ccc(C#N)cc2)O3)cc1OC	1.6
Cc1csc(N2C(=O)C3C4CCC(O4)C3C2=O)n1 (centres undefined)	-3.2
C[C@H](CO)N1C[C@H](C)[C@H](CN(C)C(=O)Nc2cccc(C(F)(F)F)c2)OCc2ccccc2-c2ccccc2C1=O	1.4
CCC(=O)N1C[C@H](C)[C@@H](OC)CN(C)C(=O)c2cc(NS(=O)(=O)CC)ccc2OC[C@@H]1C	-1.5
COC(=O)c1cc2c(c3c4cc(C)ccc4n(S(=O)(=O)c4ccc(OC)cc4)c13)C(=O)N(Cc1ccccc1)C2	-0.3
C[C@@H]1CN([C@@H](C)CO)C(=O)c2cccc(NS(=O)(=O)c3cn(C)cn3)c2O[C@@H]1CN(C)C(=O)Nc1ccccc1	-2.7
COc1ccc(NC(=O)Nc2ccc3c(c2)C(=O)N([C@H](C)CO)C[C@H](C)[C@H](CN(C)S(=O)(=O)c2cn(C)cn2)O3)cc1	-0.9
COc1ccc(C#Cc2cccc(-c3nc(C(=O)O)cc4c3[C@H](CCO)N(S(=O)C(C)(C)C)C4)c2)cc1OC (some centres undefined)	2.1
C[C@@H]1CN([C@@H](C)CO)C(=O)Cc2cc(NC(=O)Cc3ccccc3)ccc2O[C@@H]1CN(C)C(=O)Nc1ccccc1	-1.7
C/C=C/c1cnc2c(c1)C(=O)N([C@H](C)CO)C[C@H](C)[C@H](CN(C)C(=O)NC1CCCCC1)O2	-0.5
COc1ccc(-c2cc3c(c4c2ccn4C)C2CCC3O2)cn1 (centres undefined)	5.5
CN(C)C(=O)C[C@@H]1C[C@@H]2c3cc(NC(=O)NC4CCCC4)ccc3O[C@@H]2[C@@H](CO)O1	4.7
CC1=C(C(=O)N2CCCCCC2)CC(CC(=O)NCc2cccs2)C(=O)N1Cc1ccccc1 (centres undefined)	-1.1
COc1cc(OC)nc(C(NC(=O)C2CCN(Cc3c[nH]c4ccccc34)CC2)c2ccc(Cl)cc2)n1 (centres undefined)	15
O=C(Nc1ccccc1)c1cc(C2COCCN2C(=O)C2CC2)on1 (centres undefined)	2.1
Cc1ccccc1S(=O)(=O)N1CC(=O)N2[C@H](CO)[C@@H](c3ccc(C#CCC4CCCC4)cc3)[C@@H]2C1	1.2
Cc1ccc(NC(=O)C2(C)CCN2Cc2cccc3c2OCO3)cc1O (centres undefined)	2.4
C/C=C/c1ccc([C@@H]2[C@@H](CO)N3CCCCN(C(=O)Nc4cc(F)ccc4F)C[C@H]23)cc1	14
COc1ccc(S(=O)(=O)N[C@H]2CC[C@@H](CC(=O)N3CCc4ccccc4C3)O[C@H]2CO)cc1	-1.9
Cc1noc(C)c1S(=O)(=O)N(C)C[C@@H]1OCCCC[C@H](C)Oc2ccc(NC(=O)C3CCCCC3)cc2C(=O)N([C@H](C)CO)C[C@H]1C	5.9
COc1cc(C(=O)NC2CC2)cc(OC)c1OC	-6.4
C/C=C/c1cnc2c(c1)C(=O)N([C@H](C)CO)C[C@@H](C)[C@@H](CN(C)Cc1ccc(F)cc1)O2	-4.1
CC(C)NC(=O)Nc1ccc2c(c1)C(=O)N([C@H](C)CO)C[C@@H](C)[C@@H](CN(C)Cc1ccc(Cl)c(Cl)c1)OCCCC[C@H](C)O2	6.2
COc1cc(CN2CC3(CN(C(=O)Nc4c(C)noc4C)C3)c3c(n(C)c4cc(OC)ccc34)[C@@H]2CO)cc(OC)c1	-1.6
CC(C)C(=O)Nc1ccc2c(c1)C(=O)N(C)[C@@H]1CC[C@H](CC(=O)NC3CCCC3)O[C@@H]1CO2	-0.2

A section from further up:
SMILES	AF4-AF9 inh
C[C@H](CO)N1C[C@H](C)[C@H](CN(C)C(=O)Nc2cc(F)ccc2F)Oc2ncc(-c3cccc(F)c3)cc2C1=O	2.6
CCCCn1nnnc1C1(C)CCC(=O)N1Cc1cccnc1 (centres undefined)	-3.7

(listing goes on)
SMILES	AF4-AF9 inh
COc1cccc(-c2ccc3n(c2=O)C[C@@H]2[C@@H](CO)[C@H](C(=O)N(C)C)N(C(=O)C4CCC4)[C@H]32)c1	-16
C[C@@H]1CCCCO[C@@H](CN(C)C(=O)C2CCCCC2)[C@H](C)CN([C@H](C)CO)C(=O)c2cc(NC(=O)c3ccncc3)ccc2O1	-5.8
C[C@@H]1CN([C@@H](C)CO)C(=O)c2cc(NC(=O)Nc3ccc(C(F)(F)F)cc3)ccc2O[C@@H]1CN(C)Cc1ccc(-c2ccccc2)cc1	0.1
C[C@@H]1CN([C@@H](C)CO)S(=O)(=O)c2ccc(-c3ccccc3)cc2O[C@H]1CN(C)Cc1cccc(F)c1	-1.0
C[C@@H]1CN([C@H](C)CO)C(=O)c2cc(NC(=O)c3ccncc3)ccc2O[C@@H]1CN(C)Cc1ccccc1	-1.0
C[C@@H]1CN([C@@H](C)CO)C(=O)c2cccc(NS(=O)(=O)c3cccs3)c2O[C@@H]1CN(C)C(=O)Nc1ccc2c(c1)OCO2	0.2
Cc1ccc(S(=O)(=O)N(C)C[C@H]2Oc3c(NS(=O)(=O)c4ccccc4)cccc3C(=O)N([C@@H](C)CO)C[C@@H]2C)cc1	-1.5
COCC(=O)Nc1ccc2c(c1)C(=O)N(C)[C@@H]1CC[C@@H](CC(=O)NCc3ccccc3F)O[C@@H]1CO2	-11
CO[C@@H]1CN(C)C(=O)c2ccc(NC(=O)c3ccc4c(c3)OCO4)cc2OC[C@H](C)N(CC2CC2)C[C@H]1C	-2.5
CN(C)C(=O)c1cc2c(c(-c3cccc(-c4ccccc4F)c3)n1)[C@@H](CCO)N(S(C)(=O)=O)C2	-2.8
C[C@H]1CN([C@@H](C)CO)C(=O)Cc2cc(NC(=O)NC3CCCCC3)ccc2O[C@@H]1CN(C)C	-1.4
COc1ccccc1C(C)NC(=O)CCC(=O)N1CCN(S(=O)(=O)c2ccc(Cl)cc2)CC1 (centres undefined)	1.0
C[C@H]1CN([C@@H](C)CO)C(=O)c2cccc(NC(=O)c3cnccn3)c2O[C@@H]1CN(C)Cc1ccc2c(c1)OCO2	1.4
COc1ccc(S(=O)(=O)Nc2cccc3c2O[C@H](CN(C)C)[C@@H](C)CN([C@@H](C)CO)C3=O)cc1	-1.5
O=C(C1CCC1)N1CCCCN2[C@H](CO)[C@H](c3ccc(C#CC4(O)CCCC4)cc3)[C@H]2C1	3.2
CC1(C(=O)Nc2ccc3c(c2)OCCO3)CCN1C(=O)c1ccco1 (centres undefined)	-6.4
C[C@H](CO)N1C[C@H](C)[C@@H](CN(C)C(=O)Nc2ccc(F)cc2)Oc2cc(-c3ccncc3)ccc2S1(=O)=O	0.3
COc1ccc2c3c(n(C)c2c1)[C@@H](CO)N(C(=O)c1cnccn1)CC31CCN(C(=O)c2ccncc2)CC1	-0.5
COCC(=O)Nc1ccc2c(c1)[C@@H]1C[C@@H](CC(=O)N(C)C)O[C@H](CO)[C@@H]1O2	-3.2
C[C@H](CO)N1C[C@H](C)[C@@H](CN(C)S(C)(=O)=O)OCCCC[C@H](C)Oc2ccc(NS(=O)(=O)c3cn(C)cn3)cc2C1=O	-1.1

5 records drawn at random from the list so far:
SMILES	AF4-AF9 inh
C[C@@H]1CN([C@@H](C)CO)S(=O)(=O)c2ccc(-c3ccccc3)cc2O[C@H]1CN(C)Cc1cccc(F)c1	-1.0
C[C@H]1CN([C@@H](C)CO)C(=O)c2cccc(NC(=O)c3cnccn3)c2O[C@@H]1CN(C)Cc1ccc2c(c1)OCO2	1.4
C[C@@H]1CN([C@@H](C)CO)C(=O)c2cc(NC(=O)Nc3ccc(C(F)(F)F)cc3)ccc2O[C@@H]1CN(C)Cc1ccc(-c2ccccc2)cc1	0.1
C[C@H]1CN([C@@H](C)CO)C(=O)Cc2cc(NC(=O)NC3CCCCC3)ccc2O[C@@H]1CN(C)C	-1.4
COc1ccccc1C(C)NC(=O)CCC(=O)N1CCN(S(=O)(=O)c2ccc(Cl)cc2)CC1 (centres undefined)	1.0

(cont.)
SMILES	AF4-AF9 inh
CC(C)C#Cc1cnc2c(c1)C(=O)N([C@H](C)CO)C[C@H](C)[C@H](CN(C)C(=O)Cc1ccccn1)O2	-13
O=C(C[C@@H]1CC[C@@H](NC(=O)Cc2cccnc2)[C@@H](CO)O1)Nc1ccc(-c2ccccc2)cc1	-0.3
C[C@@H]1CN([C@@H](C)CO)C(=O)c2cccc(NC(=O)c3cnccn3)c2O[C@@H]1CN(C)Cc1ccc(C(=O)O)cc1	-3.5
CCCNC[C@@H]1[C@@H](c2ccc(C3=CCCC3)cc2)[C@@H](CO)N1C(=O)C1CCCC1	0.7
CN(C)CC(=O)N[C@H]1CC[C@H](CCn2cc(C3CC3)nn2)O[C@H]1CO	-2.6
O=C(c1cccc(F)c1)N1C[C@H]2[C@@H](c3ccccc31)[C@@H](CO)N2C(=O)c1cccc(F)c1	-0.2
COCC#Cc1cnc2c(c1)C(=O)N([C@@H](C)CO)C[C@@H](C)[C@@H](CN(C)S(=O)(=O)c1ccccc1)O2	-0.8
CCCNC(=O)C1(C)CCN(C(=O)c2ccc3sccc3c2)C1 (centres undefined)	-1.3
C[C@H](CO)N1C[C@H](C)[C@H](CN(C)Cc2ccncc2)Oc2c(NC(=O)c3cnccn3)cccc2C1=O	-2.9
O=C(Nc1ccccc1)N1CCCCN2[C@H](CO)[C@@H](c3ccc(C#CC4CC4)cc3)[C@H]2C1	?
C[C@H]1CCCCO[C@H](CN(C)S(=O)(=O)c2ccccc2)[C@@H](C)CN([C@@H](C)CO)C(=O)c2cc(NC(=O)CCC(F)(F)F)ccc2O1	-3.3
O=C(C[C@H]1CC[C@H]2[C@@H](COC[C@H](O)CN2C(=O)C2CC2)O1)NCc1ccncc1	-1.6
Cc1ccccc1-c1csc(C(O)c2cccnc2)n1 (centres undefined)	-1.1
C[C@H](CO)N1C[C@H](C)[C@H](CN(C)S(=O)(=O)c2cccs2)Oc2ccc(NS(=O)(=O)c3ccc(Cl)cc3)cc2CC1=O	3.2
C[C@@H]1CN([C@@H](C)CO)S(=O)(=O)c2ccc(C#Cc3ccccc3F)cc2O[C@H]1CN(C)CC1CCOCC1	-1.9
Cc1ccc(S(=O)(=O)NCC[C@H]2CC[C@H](NC(=O)c3cccnc3)[C@H](CO)O2)cc1	-3.1
CN1C(=O)c2cc(NS(=O)(=O)c3ccc(Cl)cc3)ccc2OC[C@@H]2O[C@H](CC(=O)N3CCc4ccccc4C3)CC[C@H]21	-1.3
COc1cc(Cl)ccc1OC1(C)CCN(Cc2ccc3ccccc3c2)C1 (centres undefined)	3.3
Cc1ccc(-c2nc3ccc(C)cn3c2Cc2ccccn2)cc1	1.6
N#C[C@H]1[C@H](c2ccc(C#Cc3cccc(F)c3)cc2)[C@@H](CO)N1C(=O)C1CCCC1	-0.6
O=C(NCc1ccccc1Cl)c1csc([C@H]2C[C@H](O)[C@@H](CO)O2)n1	-0.7
Cc1noc(C)c1NC(=O)N(C)C[C@@H]1Oc2c(NC(=O)Nc3ccc4c(c3)OCO4)cccc2C(=O)N([C@@H](C)CO)C[C@H]1C	-0.7
C[C@@H]1CN([C@H](C)CO)C(=O)c2cc(C#Cc3ccncc3)cnc2O[C@H]1CN(C)S(=O)(=O)c1ccccc1F	-3.6
O=C(NCC[C@@H]1CC[C@H](NC(=O)C2CC2)[C@H](CO)O1)c1cnccn1	-0.2

From PubChem BioAssay

Some of the compounds tested, so the mix of outcomes need not match the whole.
